# From PubChem
# GALR2 agonist = GALR2 (human) receptor agonism; GALR2-expressing cells, agonist activation read-out; activation, %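 (tested at 5 µM)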; hit rate 0.48% among 140,000; AID 803;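 active means above mean plus 3 SD of all compounds, about 5% in these data, not always enough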;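 further: 0% = vehicle buffer wells and 100% = reference agonist at full effect; tested in CHO reporter cells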
# Insulin prom inh = TRM-6 insulin promoter activity inhibition; TRM-6 cells (human fetal islet line), insulin promoter-eGFP reporter, imaging; reporter expression induced with tamoxifen; inhibition, % at 2 µM; hit rate 0.9% among 130,000; AID 1273;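 active means inhibition above the mean plus 3 SD, with well images judged a real hit on visual review, cut at about 60% in these data, passing the limit was not always enough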
# RGS16-Gao HTS = regulators of human RGS16-Galphao interaction. bead-based flow cytometry RGS16-Galphao binding, fluorescence; actives lie on both sides. O15492+P09471. hit rate 0.38% among 220,000. binding response (% of control), % at 10 µM;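 active means below 25% or above 175%, edge rows of some plates excepted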;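 further: Galphao activated by GDP with aluminum fluoride before binding; 100% = wells without compound and 0% = beads without RGS; some results beyond the cut were filed as inactive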
# HSV augment = increases HSV replication in cells; HSV replication augmentation in cells, fold increase; maximum fold increase; hit rate 0.005% among 220,000;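 active means peak rise of 1.5-fold or more in the series; tested in PC3 cells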;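 further: first round at 10 µM; read as green reporter fluorescence; hits show the peak of a series up to 25 µM; 1 = signal of infected wells without compound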
# PKD1 inh = inhibitors of human PKD1 kinase | Q15139 | PKD1 kinase fluorescence polarization assay | inhibition, %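 (about 10 µM by stock and volumes)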 | hit rate 0.056% among 200,000 | AID 797;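 active means inhibition of 50% or more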;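 further: controls were vehicle for no effect and a reference inhibitor for full effect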
# Target sequence (Q15139 whole entry, looked up): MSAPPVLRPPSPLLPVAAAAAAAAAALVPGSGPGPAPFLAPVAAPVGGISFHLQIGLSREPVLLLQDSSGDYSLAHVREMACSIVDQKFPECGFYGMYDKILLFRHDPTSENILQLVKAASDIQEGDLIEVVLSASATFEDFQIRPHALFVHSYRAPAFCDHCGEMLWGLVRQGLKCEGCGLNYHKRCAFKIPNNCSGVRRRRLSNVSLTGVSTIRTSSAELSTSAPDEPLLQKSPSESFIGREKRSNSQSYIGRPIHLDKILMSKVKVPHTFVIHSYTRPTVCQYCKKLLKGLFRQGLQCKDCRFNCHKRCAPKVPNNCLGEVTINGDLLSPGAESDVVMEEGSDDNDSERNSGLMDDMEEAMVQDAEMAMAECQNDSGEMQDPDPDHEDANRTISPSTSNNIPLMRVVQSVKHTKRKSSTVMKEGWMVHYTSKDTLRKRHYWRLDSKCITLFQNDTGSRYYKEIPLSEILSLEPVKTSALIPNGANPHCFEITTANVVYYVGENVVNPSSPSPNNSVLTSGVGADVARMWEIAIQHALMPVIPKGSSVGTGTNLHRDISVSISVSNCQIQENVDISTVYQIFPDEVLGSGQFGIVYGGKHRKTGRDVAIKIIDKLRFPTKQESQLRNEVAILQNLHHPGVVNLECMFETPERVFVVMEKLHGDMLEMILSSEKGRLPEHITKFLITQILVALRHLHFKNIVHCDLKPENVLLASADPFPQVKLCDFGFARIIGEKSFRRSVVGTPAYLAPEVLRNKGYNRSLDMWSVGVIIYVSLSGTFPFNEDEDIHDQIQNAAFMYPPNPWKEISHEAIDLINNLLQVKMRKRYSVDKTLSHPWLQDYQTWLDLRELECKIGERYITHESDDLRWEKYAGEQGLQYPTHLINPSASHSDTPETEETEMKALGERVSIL
# Insulin prom inh cell count = also measured in Insulin prom inh; calls as there; normalized cell count, %; measured here: cell count, toxicity; reference of the scale not given here;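 cells exposed to compound for 48 h; stained nuclei by imaging scaled within each plate; lower means fewer cells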
# HSV augment primary fold = also measured in HSV augment; calls as there; fold increase; compound at 10 µM; measured here: primary screen fold increase 10 uM; tested in PC3 cells;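 GFP signal in the first replicate; 1 = infected wells without compound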
# * = called active by the depositor; i = inactive; . = not tested or not shown; & = joins results of further samples.
SMILES,GALR2 agonist,Insulin prom inh,Insulin prom inh cell count,RGS16-Gao HTS,HSV augment,HSV augment primary fold,PKD1 inh
Cc1ccc(S(=O)(=O)CCC(=O)c2ccc(O)cc2O)cc1,-1.8,9.1,116.2,98.3,i,1.1,1.7
CCOc1c(CNCCNC(=O)c2nonc2N)cccc1OC,-1.1,18.2,84.1,107.9,i,0.87,-8.4
COc1ccc(S(=O)(=O)Cc2ccc(C(=O)N3CCC(C(N)=O)CC3)o2)cc1,-1.3,.,.,99.0,i,0.73,6.9
COC(=O)c1cc(OC)c(OC)cc1NC(=O)c1ccco1,0.2,-25.0,109.5,99.8,i,0.81,7.7
CCn1cc(C(=O)OCC(=O)Nc2cc(S(=O)(=O)N(C)C)ccc2C)c(=O)c2ccc(C)nc21,0.7,0.0,119.9,100.0,i,0.96,11.2
Cc1nc(NC(=O)c2ccc(Cl)cc2)nc2cc3c(cc12)OCO3,-0.4,-3.5,80.4,99.2,i,0.91,-7.5
O=C(CSCc1ccc(Cl)cc1)NCc1ccccn1,-0.4,-53.6,90.0,107.8,i,0.95,-1.5
CN(C(=O)CSc1ncc(C(F)(F)F)cc1Cl)c1c(N)n(Cc2ccccc2)c(=O)[nH]c1=O,.,0.0,153.1,106.2,i,1.04,6.0
CN(Cc1cccc(F)c1)C(=O)c1ccc(S(=O)(=O)C(F)F)cc1,-1.3,.,.,101.4,i,0.88,3.7
O=C(c1c[nH]c2ccccc12)N1CCN(Cc2ccccc2)CC1,.,.,.,104.1,i,0.99,-1.5
CCc1ccc[n+](-c2[nH]c(=O)sc2/C=N/N=C(\[O-])CCn2c3ccccc3c3ccccc32)c1,.,.,.,100.7,i,0.99,.
CCOC(=O)CSc1nc2ccsc2c(=O)n1C1CCN(C(=O)OCC)CC1,-2.8,.,.,96.2,i,0.86,-8.8
CCOC(=O)N1CCN(S(=O)(=O)c2ccc(C(=O)NNc3nc4c(C)cccc4s3)cc2)CC1,-1.7,-66.7,42.8,.,i,0.9,-6.8
Cc1ccc(C(C(=O)NCc2ccco2)N(C(=O)Cn2nnc3ccccc32)c2ccccc2)o1 (configuration not stated),-0.3,-54.5,128.7,97.2,i,1,-13.2
Nc1cc(=O)[nH]c(SCc2nnc(-c3ccccc3)o2)n1,-0.9,38.9,92.4,98.6,i,0.93,-0.8

# The closing 2 compounds of the part before lead into the next:
SMILES,GALR2 agonist,Insulin prom inh,Insulin prom inh cell count,RGS16-Gao HTS,HSV augment,HSV augment primary fold,PKD1 inh
Cc1ccc(C(C(=O)NCc2ccco2)N(C(=O)Cn2nnc3ccccc32)c2ccccc2)o1 (configuration not stated),-0.3,-54.5,128.7,97.2,i,1,-13.2
Nc1cc(=O)[nH]c(SCc2nnc(-c3ccccc3)o2)n1,-0.9,38.9,92.4,98.6,i,0.93,-0.8
COc1ccc(O)c(C2=Nc3ccccc3N=C(c3ccccc3)C2)c1,.,.,.,99.6,i,0.96,.
Cc1ccc(Nc2nc(CSc3nnc(-c4cccnc4)n3-c3ccccc3C)cs2)cc1,-1.1,-39.5,57.7,368.5,i,1.06,-3.1
Cc1ccc(S(=O)(=O)/C(C#N)=C/c2c(N3CCN(C)CC3)nc3c(C)cccn3c2=O)cc1,-1.6,-28.6,80.4,105.3,i,1.03,-0.5
COc1ccccc1C1=NNC(=NCc2ccccc2)SC1,.,-42.9,193.8,99.9,i,0.95,0.2
Cc1ccc(C(=O)NNC(=O)CSc2nnc3c(n2)[nH]c2ccc(C)cc23)cc1,-1.0,.,.,101.0,i,0.8,-6.0
Cc1ccc(NC(=O)c2ccco2)c([N+](=O)[O-])c1,.,.,.,98.0,i,1.02,-2.7
Cc1ccc(F)cc1NC(=S)NCCc1ccccc1,-0.8,17.9,119.3,101.4,i,1.02,1.4
CN(C(=O)Cn1cc(C#N)c2ccccc21)c1ccccc1,.,.,.,93.7,i,1.08,-6.5
Cn1ncc(Br)c1C(=O)Nc1ccc(Br)cn1,-1.2,-31.2,68.4,106.2,i,1,-4.2
CCn1c(COc2ccc(=O)n(-c3ccccc3)n2)nnc1SCc1ccc(OC)cc1,-0.2,0.0,93.4,103.5,i,0.9,0.0
CN1CCN(NC(=O)Nc2cccc(Cl)c2Cl)CC1,.,41.2,91.0,94.9,i,1.02,2.7
O=C(NC(CO)Cc1ccc([N+](=O)[O-])cc1)C(Cl)Cl (configuration not stated),-1.3,-27.0,130.3,98.6,i,1.03,-5.6
Cc1nnc(SCC2=C(C(=O)O)N3C(=O)C(NC(=O)c4cccc(F)c4F)C3SC2)s1 (configuration not stated),.,-23.5,132.9,96.7,i,0.97,-0.2
O=C(COc1cccc(NC(=O)c2cccc([N+](=O)[O-])c2)c1)c1ccc(F)cc1,-1.8,.,.,78.1,i,0.96,-0.6
O=C(N/N=C/C=C\c1ccccc1)c1cnccn1,.,-56.1,153.7,106.4,i,1.01,-6.0
O=C(CN(CC1CCCO1)C(=O)CCC(=O)Nc1ccccn1)NCC1CCCO1 (configuration not stated),-2.6,50.0,122.5,101.8,i,0.97,-2.8
CC1CCCN(C(C(=O)Nc2ccc3c(c2)OCO3)c2ccccc2)C1 (configuration not stated),.,.,.,100.5,i,0.97,-23.8
COc1cc(C=O)ccc1OCc1ccc(Cl)nc1,.,.,.,94.7,i,1.07,-8.0
O=C(NC1CCCCCC1)C1CCC(CNS(=O)(=O)c2ccc(Br)s2)CC1 (configuration not stated),5.3*,-50.0,130.2,94.6,i,0.79,-4.2
O=C(Nc1ccccc1)OCCOc1ccccc1,-0.6,-109.1,35.0,103.1,i,1.01,-1.0
CCCCCn1c(=N)n(CC(O)COc2ccccc2OC)c2ccccc21 (configuration not stated),-1.5,.,.,89.7&91.1,i,0.82&0.73,-11.4
COc1cc(OC)cc(C(=O)NC(=S)N2CCCCCC2)c1,.,50.0,116.6,96.0,i,0.9,-5.1
COC(=O)c1c(-c2ccccc2)csc1N1C(=O)Nc2ccccc2N1O,.,10.0,70.4,109.4,i,0.97,-5.6
CCCCCN(C(=O)NC(=O)Nc1ccc(C)cc1)S(=O)(=O)c1ccccc1,-1.0,.,.,23.9,i,1.2,-7.9
O=C(/C=C/c1cccs1)N1CCN(c2ccccc2F)CC1,-0.9,9.4,84.7,98.7,i,1,-16.1
COC(=O)C1=C(C)NC(=O)/C1=C\c1cc(C)n(-c2c(C)cccc2C)c1C,-0.8,19.4,96.1,88.5,.,.,-0.6
COC(=O)[C@H](CC(C)C)NC(=O)NCCCc1ccccc1,-1.2,18.8,113.8,88.2,i,0.98,-1.0
O=C(NNC(=O)C1CCCO1)c1ccc(F)cc1 (configuration not stated),-0.6,33.3,132.4,96.8,i,0.95,-1.1
O=c1oc(-c2ccco2)nc2sc3c(c12)CCCCC3,.,17.9,132.8,106.3,i,0.91,6.5
COc1cc2ccccc2cc1C(=O)Nc1ccccc1N1CCN(S(C)(=O)=O)CC1,-1.8,-7.1,143.6,102.4,i,0.84,-4.8
CCOc1cc(C)c(S(=O)(=O)N2CCCCC2)cc1C,.,.,.,113.9,i,0.99,0.3
Cc1ccc(OC(C)C(=O)N=Nc2c(O)[nH]c3ccc([N+](=O)[O-])cc23)cc1 (configuration not stated),.,.,.,100.9,i,0.84,-5.7
Cc1[nH]c(=O)[nH]c(=O)c1N(C)C,.,-14.3,100.0,110.9,i,1.02,-1.6
O=C(CCSc1ccccc1)Nc1ccc(S(=O)(=O)Nc2ncccn2)cc1,.,.,.,101.2,i,1.03,-7.0
CCOC(=O)C(CCCCCCC(NC(C)=O)(C(=O)OCC)C(=O)OCC)(NC(C)=O)C(=O)OCC,.,.,.,69.4,i,0.98,.
CC(C)SCCCCOc1ccc2ccccc2c1,-1.2,.,.,92.9,i,0.92,-17.4
CCN(CC)S(=O)(=O)c1ccc(N2Cc3ccccc3C2=N)cc1,.,-18.8,136.3,99.3,i,0.93,10.1
COc1ccc(CCNC(=O)COc2ncnc3ccccc23)cc1OC,.,-88.9,137.4,102.1,i,0.9,-1.6
Cc1ccc(Cn2c(CN3CCOCC3)nc3c2c(=O)n(C)c(=O)n3C)cc1,0.1,33.3,82.2,102.3,i,0.98,-10.3
O=C(O)Cn1c(-c2cscn2)nc2ccccc21,-3.0,.,.,100.4,i,0.75,-1.2
COc1cc(C)c(S(=O)(=O)N2CCOCC2)cc1C(C)C,-1.1,13.6,69.3,105.8,i,0.75,-5.9
O=C(O)CSc1ncnc2c1oc1ccccc12,-1.8,2.4,108.6,104.1,i,0.95,-8.5
O=c1[nH]c2cc3c(cc2cc1CN(CCCO)C(=S)NCc1ccco1)OCO3,.,.,.,100.0,i,1.04,3.0
Cc1cc(OC(=O)c2ccc(S(=O)(=O)N3CCCC3)cc2)c([N+](=O)[O-])c(=O)[nH]1,.,4.8,53.9,289.5,i,0.99,2.4
COc1ccccc1C/C(N)=N/OC(=O)c1cccc([N+](=O)[O-])c1C,0.0,-6.7,116.5,112.6,i,0.95,-7.2

# Exported bar-delimited: part of the list above.
mol | GALR2 agonist | Insulin prom inh | Insulin prom inh cell count | RGS16-Gao HTS | HSV augment | HSV augment primary fold | PKD1 inh
Cc1ccc(NC(=O)c2ccco2)c([N+](=O)[O-])c1 | . | . | . | 98.0 | i | 1.02 | -2.7
O=C(O)Cn1c(-c2cscn2)nc2ccccc21 | -3.0 | . | . | 100.4 | i | 0.75 | -1.2

# (next part)
SMILES,GALR2 agonist,Insulin prom inh,Insulin prom inh cell count,RGS16-Gao HTS,HSV augment,HSV augment primary fold,PKD1 inh
COc1ccc(-c2nnc(SC(C)C(=O)Nc3cccc(Cl)c3)o2)cc1 (configuration not stated),0.1,-21.4,129.9,38.3,i,1.06,-24.4
Cc1ccc(NC(=O)CSc2ccc(-c3cccnc3)nn2)cc1Cl,.,30.8,111.3,107.2,.,.,-4.2
Cc1cccc(C(=O)NCC(=O)OCC(=O)N2CCCCC2)c1,.,.,.,99.9,i,0.87,-5.4
CC(=O)NCCc1nc2cc(NC(=O)c3cccs3)ccc2n1C,.,-100.0,106.1,103.0,i,1,-4.2
COC(=O)c1cnc(Nc2cccc(C(F)(F)F)c2)c([N+](=O)[O-])c1,.,.,.,89.2,i,1.1,.
COCCCNS(=O)(=O)c1ccccc1,-0.7,58.3,77.0,95.6,i,1.14,-13.1
CC1(C)CC(=O)C2=C(C1)NC(Nc1nc3ccccc3o1)=NC21CCCCC1,-1.1,35.7,68.5,99.8,i,0.84,-11.3
O=C1CCC/C1=c1\s/c(=C\c2cccnc2)c(=O)n1-c1ccccc1,0.4,21.4,116.3,112.6,i,0.92,9.0
Cc1c(NC(=O)/C(C#N)=C/c2c(Oc3ccccc3)nc3ccccn3c2=O)c(=O)n(-c2ccccc2)n1C,-0.7,11.8,107.0,102.0,i,0.84,-3.1
Cc1ccc2c(c1)nnn2C1CCN(C(=O)c2ccccc2F)CC1,.,-11.8,126.6,99.0,i,0.93,-3.8
Fc1ccc(NC(=S)N2CCOCC2)cc1Cl,.,.,.,105.2,i,0.99,5.8
CC(NC(=O)c1nn(C)c(=O)c2ccccc12)c1ccccc1 (configuration not stated),0.1,23.7,72.2,95.9,i,0.73,5.4
Cc1ccc(CSc2nnc(SCC(=O)N/N=C/c3ccccc3OCC(=O)O)s2)cc1,.,.,.,98.5,i,1.05,.
CS(=O)(=O)N(CC(=O)N1CCN(c2ccc(F)cc2)CC1)c1cccc(Cl)c1,-2.0,8.3,99.7,112.7,i,0.9,-5.2
CCOc1ccc2nc(NC(=O)c3ccc(OC)c(S(=O)(=O)N4CCOCC4)c3)sc2c1,-2.9,34.4,110.4,101.7,i,0.79,-7.5
CC(=O)c1c(C)[nH]c(C(=O)OC2CCCCC2=O)c1C (configuration not stated),-1.3,21.2,88.0,99.8,i,0.93,7.4
Cc1cccc(CC(=O)c2c[nH]c3ccccc23)c1,.,.,.,87.8,i,1.04,.
O=C(Cc1cc(=O)[nH]c(=O)[nH]1)NCc1ccc(Cl)cc1,-1.1,-50.0,48.5,103.5,.,.,-7.4
C=CCn1c(N2CCCCCC2)nc2c1c(=O)[nH]c(=O)n2C,-1.0,32.1,76.2,95.8,i,0.89,-3.3
CN(C(=O)c1ccc(COc2ccccc2Br)o1)c1ccccc1,.,19.1,104.9,98.6,i,0.96,-4.1
Fc1cccc(-c2nn[nH]n2)c1,-1.9,-17.1,109.6,102.3,i,0.99,2.2
COc1ccc(N=NC2=C(O)CC(C)(C)CC2=O)cc1,-0.4,0.0,82.6,104.0,i,0.95,-2.5
O=C(NCc1ccncc1)C(=O)Nc1nccs1,.,.,.,102.4,i,0.89,.
NC(=O)C1CCN(CC(=O)Nc2ccccc2Sc2ccccc2)CC1,-1.1,9.4,130.4,103.9,i,0.93,13.3

# Three compounds from above, limited to Insulin prom inh cell count.
compound	Insulin prom inh cell count
COC(=O)C1=C(C)NC(=O)/C1=C\c1cc(C)n(-c2c(C)cccc2C)c1C	96.1
COc1ccc(N=NC2=C(O)CC(C)(C)CC2=O)cc1	82.6
O=C(Cc1cc(=O)[nH]c(=O)[nH]1)NCc1ccc(Cl)cc1	48.5
